Source: PubChem (ICCB-Longwood Screening Facility, Harvard Medical School)
VACV E9 pol inh: blocks vaccinia virus processive DNA synthesis. in vitro processive DNA synthesis, absorbance read-out; hits give low values; some inactives read as strong as hits. normalized absorbance, % (no concentration beside the values). 46,000 tested, 0.94% active;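 active = replicate mean up to 90% and picked by the depositor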;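 also: 100% = median of the test wells of a plate; 100 nL library stock went into each well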
The depositor's hits bear a star. Not all compounds are listed. The share of hits here may be higher or lower than overall.

SMILES	VACV E9 pol inh
CCC(=O)N1CC(=O)Nc2ccc(Br)cc2C1c1ccccc1 (stereo unspecified)	98
CC(NC(=O)c1ccco1)C(=O)Nc1ccc(OCc2ccccc2)cc1 (stereo unspecified)	104
N#CC1=C(N)N(c2ccccc2)c2oc(-c3ccccc3)nc2C1c1cccc(O)c1 (stereo unspecified)	98
C=CCn1cc(C(=O)OC)c(=O)c2cc(S(=O)(=O)N(CC)CC)ccc21	100
O=C(Nc1ccc2oc(-c3ccncc3)nc2c1)c1ccco1	94
Cc1[nH]c(=S)c(C#N)c(C)c1CC(=O)c1ccc(Br)cc1	100
Cc1c(C(=O)NCc2ccccc2)oc2ccc3c(c12)C=CC1(CCCC1)O3	100
COc1ccc(OCC(O)CNC(C)(C)C)cc1 (stereo unspecified)	95
O=C(Nc1nccs1)c1cc2ccccc2oc1=Nc1ccc(Cl)cc1	98
CC(Sc1nc(-c2cccnc2)ccc1C#N)C(=O)O (stereo unspecified)	100
CC(C(=O)N1CCc2ccccc21)N1C(=O)c2ccccc2C1=O (stereo unspecified)	100
CC/C(=C(/CC)c1ccc(O)cc1)c1ccc(O)cc1	94
CC1(C)CC(=O)C2=C(C1)OC1=C(C(=O)CC(C)(C)C1)C2c1cccnc1	91
O=P(O)(C1Cc2ccccc2C1)C(O)c1ccco1 (stereo unspecified)	93
Cc1ccc(C(=O)Nc2cccc(C(F)(F)F)c2)cc1	100
CC(=O)NC1=NN(C(C)=O)C(/C=C/c2ccccc2)S1 (stereo unspecified)	96
CN1CCN(c2cc(-c3ccccc3)nc3ccccc23)CC1	79*
COc1ccccc1NC(=O)c1cn(-c2ccccc2)nc1-c1cccnc1	77
Cc1cccc(C2CCCCC2)c1O	102
OCc1cc2c(cn1)[nH]c1ccccc12	101
CCCCN(C)C(=O)c1oc(=O)c2ccccc2c1-c1ccc(C)cc1	95
CCOC(=O)c1c(C)oc2c1c(C=NC(C)c1ccccc1)c(O)c1ccccc12 (stereo unspecified)	100
COC(=O)c1nc(-c2ccccc2)oc1N(C)C	101
Nc1c(S(=O)Cc2ccccc2)sc2nc(-c3cccs3)cc(-c3ccccc3)c12 (stereo unspecified)	97
CSc1nc2ccccc2c(=O)n1-c1ccc(F)cc1F	84
COC(=O)c1ccc(-c2nc3ccccc3o2)cc1	105
CC(C)c1ccc(NC(=O)[C@@H](c2ccccc2)N2Cc3ccccc3C2=O)cc1	98
Cc1cc(C)c(-c2cc(C(F)(F)F)no2)c(=O)[nH]1	100
O=C(CN1C(=O)c2ccccc2S1(=O)=O)N1CCc2ccccc2C1	97
COc1cc2c(=O)n(Cc3ccccc3Cl)c(=O)n(CC(=O)NC3CCCCC3)c2cc1OC	104
c1ccc(OCc2nc3ccccc3[nH]2)cc1	100
CCOC(=O)c1nccn1CC(=O)Nc1ccccc1CC	79
Cc1ccc(Nc2nnc(-c3cc4cc(Cl)ccc4oc3=O)s2)cc1	100
CCOC(=O)COc1ccc2c(C)cc(=O)oc2c1	103
CCC(=O)N1CCc2cc(S(=O)(=O)N(CC)c3ccccc3)ccc21	105
O=C(COc1ccccc1)Nc1c(C(=O)c2ccccc2)oc2ccccc12	83

Gathered by group, the compounds so far containing a carbonyl joined to an NH by a bond outside any ring.
SMILES	VACV E9 pol inh
CC(NC(=O)c1ccco1)C(=O)Nc1ccc(OCc2ccccc2)cc1 (stereo unspecified)	104
O=C(Nc1ccc2oc(-c3ccncc3)nc2c1)c1ccco1	94
Cc1c(C(=O)NCc2ccccc2)oc2ccc3c(c12)C=CC1(CCCC1)O3	100
O=C(Nc1nccs1)c1cc2ccccc2oc1=Nc1ccc(Cl)cc1	98
Cc1ccc(C(=O)Nc2cccc(C(F)(F)F)c2)cc1	100
CC(=O)NC1=NN(C(C)=O)C(/C=C/c2ccccc2)S1 (stereo unspecified)	96
COc1ccccc1NC(=O)c1cn(-c2ccccc2)nc1-c1cccnc1	77
CC(C)c1ccc(NC(=O)[C@@H](c2ccccc2)N2Cc3ccccc3C2=O)cc1	98
COc1cc2c(=O)n(Cc3ccccc3Cl)c(=O)n(CC(=O)NC3CCCCC3)c2cc1OC	104
CCOC(=O)c1nccn1CC(=O)Nc1ccccc1CC	79
O=C(COc1ccccc1)Nc1c(C(=O)c2ccccc2)oc2ccccc12	83

The list goes on.
SMILES	VACV E9 pol inh
COc1ccc(C(=O)N2CCN(C(C)C)CC2)cc1	105
CCOC(=O)C1=C(C)OC2=C(C(=O)CC(C)(C)C2)C1c1ccc(CC)s1 (stereo unspecified)	101
COc1cccc(NC(=O)c2ccc(-n3cccn3)nc2)c1	126
CCOC(=O)CSc1nnc(NC(C)=O)s1	88
Cn1c2c(c(=O)n(C)c1=O)CN(C1CCCC1)CN2	98
Cc1ccc(N=C2NC(=O)CC(C(=O)Nc3ccc(Cl)cc3)S2)cc1C (stereo unspecified)	100
CC(C)OC1(O)C(=O)c2ccccc2C(=O)C1(O)OC(C)C (stereo unspecified)	96
FC(F)(F)c1cnc(-n2cncn2)c(Cl)c1	106
Cc1ccc(OCCn2c(CC(C)(C)C)nc3ccccc32)cc1	104
O=C(Nc1cccc(O)c1)C1CC(c2cccc(Br)c2)=NO1 (stereo unspecified)	90
O=C(CSCc1ccccc1)N1CCc2ccccc21	101
Cc1nc(-c2ccccc2)cs1	102
O=C(Nc1nnc(-c2ccc(Cl)cc2)o1)c1ccc2ncsc2c1	93
CN1CCN(Cc2c(O)ccc3c4c(c(=O)oc23)CCCC4)CC1	97
O=C(NC1CCCC1)c1ccc2c(c1)N(Cc1ccccc1)C(=O)CS2	101
O=C(NCCn1ccc2ccccc21)c1ccc2c(c1)OCO2	101
CCC1CCCCN1S(=O)(=O)c1c(C)cc(C)cc1C (stereo unspecified)	84
O=C(NCc1cccs1)c1cc(=O)n(Cc2ccc(Cl)cc2)c2ccccc12	99
COc1ccc(-n2ncc(C(=O)NCc3ccc(-c4cccs4)cc3)c2C)cc1	101
CC(NC(=S)NCCc1ccc(S(N)(=O)=O)cc1)C12CC3CC(CC(C3)C1)C2 (stereo unspecified)	99
CCc1nnc2c3ccccc3nc(-c3ccncc3)n12	65
CCNc1cccc(C)c1	100
CCOC(=O)Nc1nc2ccc(C)cc2s1	100
CC(O)c1nc2ccccc2n1C (stereo unspecified)	98
CCOC(=O)/C(C#N)=C1\Nc2ccccc2C1=O	100
CCc1cccc(C)c1NC(C)=O	100
O=C(N=C1SCC(=O)N1c1ccccc1)c1ccccc1	97
Cc1c(-c2ccc3ccccc3n2)sc2ncnn12	93
O=C(NCCCN1CCCCC1)c1ccc2c(=O)n3c(nc2c1)CCCCC3	85
Cc1ccc(-c2cn3cccnc3n2)cc1NC(=O)c1ccccc1	103
O=C(c1ccccc1NS(=O)(=O)c1ccc(F)cc1)N1CCCCC1	92
COC(=O)CC(N)c1ccc(Cl)cc1 (stereo unspecified)	101
CCOC(=O)Cc1ccc(NC(=O)N2CCC(CN3CCc4ccccc4C3)CC2)cc1	106
CN(C)C=Nc1cc(Cl)c(-n2cccc2)cc1Oc1ccc(Cl)cc1	89
COc1ccc(N2CCN(CCCNC(=O)CN3C(=O)CCSc4ccccc43)CC2)cc1	102
CC(C)n1c(NCc2ccccc2)nc2ccccc21	104
CN1C2CCC1CC(NC(=O)Nc1ccc(F)cc1F)C2 (stereo unspecified)	110
CCOc1ccc(-c2nn(C)c(C)c2Oc2ccccc2)c(O)c1	100
CC(C)c1ccccc1OCC(O)CN1CCCCC1 (stereo unspecified)	87
Cc1ccc2c(CN3C(=O)C4CC=CCC4C3=O)cc(=O)oc2c1C (stereo unspecified)	88
CN(C)CCOC(=O)c1ccccc1C(=O)O	91
CCOC(=O)c1ccc(N2C(=O)C(C)C(Cc3cc(C)cc(C)c3)C2=O)cc1 (stereo unspecified)	109
Fc1ccc(NC(=S)Nc2ccccc2)cc1	100
Cc1cccn2c(=O)c3cc(C(=O)N4CCN(C)CC4)c(=N)n(Cc4cccnc4)c3nc12	100
CC(C)(C)c1nc(C#N)c(N2CCC(C(N)=O)CC2)o1	98
CCNC(=O)c1c(O)c2cccc3c2n(c1=O)CC3	94
Cc1cccc(NC(=O)N2CCCC2c2cccnc2)c1 (stereo unspecified)	108
O=S(=O)(c1cccc(C(F)(F)F)c1)N1CCCCC1	100

2 entries drawn at random from the list so far:
SMILES	VACV E9 pol inh
Cc1cccn2c(=O)c3cc(C(=O)N4CCN(C)CC4)c(=N)n(Cc4cccnc4)c3nc12	100
CCNC(=O)c1c(O)c2cccc3c2n(c1=O)CC3	94

The results go on.
SMILES	VACV E9 pol inh
O=C(OCc1ccc2c(c1)OCO2)c1c(F)cccc1Cl	105
O=C1CC(c2ccco2)CC(O)=C1C=NCC1NCCc2ccccc21 (stereo unspecified)	99
Cc1c(C(=O)N2CCN(C)CC2)oc2c1C(=O)CC(C)(C)C2	90
O=C(O)CNC(=O)c1ccc(Cl)c(Cl)c1	103
CC(C)(C)C1(O)C=C(O)C(=O)N1c1cccnc1 (stereo unspecified)	98
CC1(COc2ccc(CC3SC(=O)NC3=O)cc2)CCCCC1 (stereo unspecified)	100
CC1(C)CC(=O)C(C2c3ccccc3Oc3ccccc32)C(=O)C1	100
COc1ccc(CCNC(=O)CSc2c[nH]c3ccccc23)cc1OC	100
CC(=O)N1CCc2c(sc(NC(=O)c3ccccc3)c2C(N)=O)C1	110
O=C(O)c1ccc(C(F)(F)F)cc1C(F)(F)F	104
c1cnc(N2CC[N+]3(CCCC3)CC2)nc1	100
CN(C)/C=N/S(=O)(=O)c1ccc(Cl)c(Cl)c1	79
CCNC(=S)Nc1ccc(NC(=O)c2ccccc2O)cc1	86
Cc1c(N=CC2CCCN3CCCCC23)c(=O)n(-c2ccccc2)n1C (stereo unspecified)	100
CC1(C)CN(c2ccc(OCc3ccccc3)cc2)C1=O	91
Cc1oc(C(C)(C)C)cc1C(=O)C(C#N)=C1SCCS1	98
CCOC(=O)c1ccc(NC(=O)c2ccc3ncsc3c2)cc1	100
NNC(=O)c1cc(=S)nc[nH]1	106
O=C(CCc1nc2ncccc2c(=O)n1Cc1ccccc1Cl)N1CCN(c2ccccc2)CC1	102
Cc1nc(CCNS(=O)(=O)c2cccs2)cs1	100
CC1(C)CC(n2[nH]c(=O)cc2N)CCO1 (stereo unspecified)	94
OCc1nc2ccccc2[nH]1	83
O=C(c1ccco1)N1CCN(S(=O)(=O)c2ccc(Cl)c(C(F)(F)F)c2)CC1	96
CN1C(=O)c2ccccc2C(C(=O)NCCCN2CCCC2=O)C1c1cn(C)c2ccccc12 (stereo unspecified)	102
C=CCNc1ncnc2c1c(-c1ccccc1)cn2-c1ccc(OCC)cc1	97
CCCCC(=O)Nc1ccc2oc(-c3ccc(O)c(Br)c3)nc2c1	100
CCOC(=O)c1sc(NC(=O)CSc2ccc(C)cc2)nc1C	98
O=C(COC(=O)c1n[nH]c2ccccc12)NC(c1ccccc1)c1ccccc1	99
Cc1ccc(C(O)CSc2nnc(-c3ccc4ccccc4c3)n2C)cc1 (stereo unspecified)	106
CN(C)c1ccc(C(=O)Nc2ccc(Oc3c(Cl)cccc3Cl)nc2)cc1	96
Cc1ccc(-c2csc3ncnc(NCCN4CCNC4=O)c23)cc1	110
Cc1csc(NC(=O)CSc2ncnc3ccccc23)n1	99
Cc1ccc(S(=O)(=O)NC2CCCCC2)cc1-c1nnc2c3ccccc3c(C)nn12	92
COC(=O)c1cc(=O)nc2n1C1O[C@H](CO)C(O)[C@H]1O2 (stereo partly specified)	99
O=C(SC1=NCCS1)c1cccc(Cl)c1	100
Cc1cc2cc(CNC(=O)c3cccs3)ccc2n1C	96

Looked up above.
C=CCNc1ncnc2c1c(-c1ccccc1)cn2-c1ccc(OCC)cc1 in VACV E9 pol inh = 97
Cc1csc(NC(=O)CSc2ncnc3ccccc23)n1 in VACV E9 pol inh = 99
Cc1ccc(-c2csc3ncnc(NCCN4CCNC4=O)c23)cc1 in VACV E9 pol inh = 110
Cc1cc2cc(CNC(=O)c3cccs3)ccc2n1C in VACV E9 pol inh = 96
O=C(SC1=NCCS1)c1cccc(Cl)c1 in VACV E9 pol inh = 100
O=C(COC(=O)c1n[nH]c2ccccc12)NC(c1ccccc1)c1ccccc1 in VACV E9 pol inh = 99
Cc1ccc(C(O)CSc2nnc(-c3ccc4ccccc4c3)n2C)cc1 (stereo unspecified) in VACV E9 pol inh = 106

Other compounds follow.
SMILES	VACV E9 pol inh
CC1CCN(C(=O)Cn2nc(-c3ccc(Cl)cc3)ccc2=O)CC1	108
c1ccc(-n2nnnc2NC2CCCCC2)cc1	98
CCCC(NC(=O)c1ccc(Br)o1)c1nc2ccccc2[nH]1 (stereo unspecified)	96
CC(C)(O)c1cn2ccccc2n1	93
Cc1cc(=O)nc2c3ccccc3n(CC(=O)N3CCCC3)n12	102
O=C(NCCCn1ccnc1)c1ccccc1OCc1ccccc1	96
CN1C(=O)C2CN(CCc3ccccc3)CNC2N(C)C1=O (stereo unspecified)	100
COC(=O)c1sc(=S)n(-c2cc(OC)ccc2OC)c1N	100
CC(C)(C)OC(=O)N1CCN(C(=O)c2ccc(Oc3cccnc3)o2)CC1	98
O=C(CC(=O)Nc1ccccn1)Nc1ccccn1	103
COc1ccc(-n2ccnc2SCC(=O)NCCc2ccccc2)cc1	94
CCCOc1ccc(C(=O)Nc2c(NC)c3ccccc3oc2=O)cc1	116
Cc1ccc(Sc2c(C(=O)NCc3ccco3)[nH]c3ccccc23)cc1	92
Cc1cc(C)n2nc(S(=O)(=O)Nc3ccccc3C)nc2n1	100
O=C(O)CC1SC(=Nc2cccc(C(F)(F)F)c2)NC1=O (stereo unspecified)	100
Cc1cc(C)cc(N2C(=O)CC(n3ccnc3)C2=O)c1 (stereo unspecified)	103
O=C(c1cccc(Cl)c1)N1CCOCC1	99
N#CCC(=O)Nc1ccc(N2CCOCC2)cc1	100
CC1=C(C(=O)Nc2ccccc2)C(c2cccs2)C(C#N)=C(SCC(N)=O)N1 (stereo unspecified)	100
O=C(Cn1c(=O)oc2cc(S(=O)(=O)N3CCCC3)ccc21)Nc1cccnc1	101
CCc1ccc(NC(=O)C(Cc2ccccc2)n2cccc2)cc1 (stereo unspecified)	94
O=S(=O)(c1ccc(F)cc1)N1CCCC1c1cccnc1 (stereo unspecified)	96
